MARV entry inh – blocks Marburg virus binding to or entry into cells. Potency, µM (top dose mostly 37.8 µM), for the others: top-dose activity change, negative = inhibition, actives largely listed as inhibitors. 300,000 compounds, 1.8% hits. Marburg virus pseudotyped entry inhibition, cell reporter; control for the full effect not named in the record; about a third of the inactives were read at about 46 µM; active = well fitted inhibition curve with a large enough effect; inconclusive = small, poorly fitted or top-dose-only effect, or effect the other way; inactive = flat fitted curve, though single readings scatter; tested in HEK293 cells; about a fifth of its hits are not listed in these tables; also: % is scaled to controls: 0 for no effect and ±100 for the full control effect; luciferase read-out
NS1 inh – influenza NS1 inhibition; S. cerevisiae slowed by influenza A NS1, growth recovery by OD600; Potency, µM (highest dose often 46.1 µM), without a hit: at the top dose activity, positive = more growth; 270,000 compounds, 0.4% hits; AID 2326; active means well fitted rising curve with a large enough effect; inconclusive means small, poorly fitted or top-dose-only effect; inactive means no such curve, though single readings can be large or run the other way; also: nearly all actives have a fitted effect of over 50% in size
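A cell-based growth assay was used: compounds that relieve NS1-induced slow growth of budding yeast raise OD600. Assay medium was yeast nitrogen base with ammonium sulphate and -URA supplement, pH 6.0, with 2% galactose.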
SARS PLpro yeast – SARS-CoV PLP inhibition in yeast; S. cerevisiae expressing SARS-CoV PLpro, growth rescue; control for the full effect not named in the record; Potency, µM (highest dose often 32.9 µM), for the others: at the top dose activity, positive = growth rescue; 330,000 compounds, 0.19% hits; active means well fitted rising curve with a large enough effect; inconclusive means small, poorly fitted or top-dose-only effect; inactive means no such curve, though single readings can be large or run the other way; also: 0% is about no effect; nearly all actives have a fitted effect of over 55% in size; growth read by luminescence after 48 h
RE007 growth inh – less growth of the S. pombe RE007 Vpr strain. 360,000 compounds, 0.21% hits. Potency, µM (doses to about 92.2 µM), inactives show at the top dose activity change, negative = less growth. S. pombe RE007 Vpr strain, BacTiter-Glo ATP luminescence, 24 h; control for the full effect not named in the record; active = well fitted falling curve with a large enough effect; inconclusive = small, poorly fitted or top-dose-only effect; inactive = no such curve, though single readings can be large or run the other way;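 also: % is scaled to controls: 0 for no effect and ±100 for the full control effect; nearly all actives have a fitted effect of over 50% in size; the assay follows cell death caused by Vpr and the record does not say whether a fall means rescue or toxicity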
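Fission yeast strain RE007, carrying one chromosomally integrated HIV-1 vpr copy, was seeded at OD 0.01 in PMG+AL medium with 23 nL pinned compound. After 24 h at 30 °C and 99% humidity, viability was read by BacTiter-Glo luminescence.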
StopGo reporter – FMDV 2A StopGo reporter, luciferase signal | human cells with a luciferase reporter of 2A StopGo recoding; control for the full effect not named in the record | Potency, µM (top dose mostly 57.9 µM), for inactives: top-dose signal change, negative = less light | 410,000 compounds, 1.2% hits; active = well fitted falling curve with a large enough effect; inconclusive = small, poorly fitted or top-dose-only effect; inactive = no such curve, though single readings can be large or run the other way; tested in HEK293T cells; also: % is scaled to controls: 0 for no effect and ±100 for the full control effect; nearly all actives have a fitted effect of over 45% in size; luciferase light after 4 h
Lassa entry inh – blocks Lassa virus binding to or entry into cells. 300,000 compounds, 1.2% hits. Lassa virus pseudotype entry inhibition, cell reporter; control for the full effect not named in the record. AID 540256. Potency, µM (series often up to 37.9 µM), for the others: at the top dose activity change, negative = inhibition, hits mostly inhibitors; active means well fitted inhibition curve with a large enough effect; inconclusive means small, poorly fitted or top-dose-only effect, or effect the other way; inactive means flat fitted curve, though single readings scatter; tested in HEK293 cells; also: % is scaled to controls: 0 for no effect and ±100 for the full control effect; nearly all actives have a fitted effect of over 50% in size; luciferase read-out
Cruzain Triton – inhibitors of Trypanosoma cruzi cruzain with detergent. P25779. purified cruzain, Z-FR-AMC fluorescence, 0.01% Triton. Potency, µM, inactives show max response, negative = inhibition, hits mostly inhibitors. 200,000 compounds, 0.43% hits. AID 1478;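 also: plate controls were neutral wells for no effect and buffer without enzyme for full effect; nearly all actives have a fitted effect of over 40% in size; top concentration of the series not given in the record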
Target sequence (P25779 123-467 limits assumed): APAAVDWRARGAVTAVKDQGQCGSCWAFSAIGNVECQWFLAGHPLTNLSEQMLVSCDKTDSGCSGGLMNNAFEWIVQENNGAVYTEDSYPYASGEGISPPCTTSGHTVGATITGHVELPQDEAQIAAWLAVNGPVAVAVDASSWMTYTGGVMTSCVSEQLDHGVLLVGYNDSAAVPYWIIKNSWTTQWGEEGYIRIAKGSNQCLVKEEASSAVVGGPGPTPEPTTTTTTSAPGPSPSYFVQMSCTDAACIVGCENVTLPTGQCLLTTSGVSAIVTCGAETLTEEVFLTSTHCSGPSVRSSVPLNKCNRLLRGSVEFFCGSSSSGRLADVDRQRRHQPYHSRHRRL
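15 min RT preincubation of 1.5 nM cruzain with compound, then 2 uM Z-FR-AMC added; kinetic AMC fluorescence, 60 s delta. Triton X-100 0.01%, pH 5.5.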
Cruzain noTriton – blocks cruzain activity in detergent-free assay; 200,000 compounds, 2.3% hits; Potency, µM, without a hit: max response, negative = inhibition, most hits filed as inhibitors; purified cruzain, Z-FR-AMC fluorescence, no detergent;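 also: plate controls were enzyme without inhibitor for no effect and buffer without enzyme for full effect; nearly all actives have a fitted effect of over 40% in size; top concentration of the series not given in the record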
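Detergent-free condition (0.00005% Triton X-100) in acetate buffer pH 5.5 with DTT. 1.5 nM enzyme and compound were pre-mixed 15 min, then 2 uM Z-FR-AMC substrate added; reaction progress from fluorescence change between first and third reads (60 s).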
* = called active by the depositor; ? = inconclusive; . = not tested or not shown; [ ] = dose if it differs, or a comment. Unless noted, calls follow the shape of the dose curve; as a rule, active = well fitted curve in the direction sought with a large enough effect; inconclusive = small, poorly fitted or top-dose-only effect, or another doubt; inactive = no such curve, though single readings can be large; an effect the other way counts as inactive or inconclusive. Potency is read from the fitted curve at half-maximal effect. An unsorted share of the library; any-hit rate near 4.7%.

SMILES | MARV entry inh | NS1 inh | SARS PLpro yeast | RE007 growth inh | StopGo reporter | Lassa entry inh | Cruzain Triton | Cruzain noTriton
COc1ccccc1NC(=O)c1ccc2nc(N3C(=O)CCC3=O)sc2c1 | 6% | ? | -2% | -12% | -1% | -1% | -1.2% | ?
COc1cc2nc(C3CC3)n(NC(=O)c3ccc(F)cc3)c(=O)c2cc1OC | 11% | -2% | 0% | 11% | 2% | 9%[14.3 µM] | -1.8% | -1%
CNC(=O)C(=O)N/N=C/c1ccccn1 | 17%[46.1 µM] | -3% | 1% | -5% | 7% | -9%[46.1 µM] | . | .
Cc1ccc(/C=C/C(=O)NC(C)c2ccccc2)cc1 (stereo unspecified) | 9% | 0% | -14% | 6% | 10% | 11µM* | -5.1% | 2%
Cc1nc2ccc(NC(=O)c3ccc(S(=O)(=O)N(C)C)cc3)cc2s1 | -1%[46.1 µM] | . | 2% | 12% | -13% | -8%[46.1 µM] | . | .
CCOc1ccc(C(=O)NCCCn2ccnc2)cc1 | 12% | 5% | -12% | 32% | 8% | -2% | 1.8% | -8%
CC(=O)OC(C(=O)NCCc1ccccc1)c1cccnc1 (stereo unspecified) | 9% | -3% | -3% | 4% | 5% | ? | 1.8% | 4%
Cc1ccc(C(=O)N/N=C/c2ccc(OC(=O)c3ccccc3Cl)cc2)cn1 | 2%[46.1 µM] | -6% | -3% | 2% | -8% | ? | . | .
CCc1ccccc1NC(=O)c1cc([N+](=O)[O-])ccc1N1CCOCC1 | -26%[46.1 µM] | -1% | 0% | -2% | -3% | 4%[46.1 µM] | . | .
O=C(Cn1nc(-c2ccccc2Cl)ccc1=O)Nc1ccccc1-c1ccccc1 | -19% | -2% | 0% | 3% | -17% | -20% | . | .
CC(=O)Oc1cccc(N2C(=O)CC(Nc3ccc(N4CCOCC4)cc3)C2=O)c1 (stereo unspecified) | 8% | ? | -1% | 12% | -15% | ? | -2.3% | -14%
CCc1csc(CCNC(=O)C2CCC(=O)N(Cc3cccc(C(F)(F)F)c3)C2)n1 (stereo unspecified) | 12% | 1% | 1% | -2% | -8% | 7% | . | .
Cc1ccc(C(=O)Nc2ccc(NC(=O)c3cccs3)cc2)cc1C | . | . | . | . | 2% | 9%[46.1 µM] | 0.1% | 19%
NC(=O)C1CCN(C(=O)c2ccc(-c3ccccc3Cl)o2)CC1 | ? | . | -2% | 16% | 37%[activator] | 19% | . | .
COc1ccc(CC(=O)NCCc2sc(-c3cccc(F)c3)nc2C)cc1 | . | . | . | . | -27% | -22%[46.1 µM] | -3.7% | 4%
O=C(NCCCN1CCCC1=O)c1cccs1 | 9% | 13% | 6% | 4% | -2% | -2% | 1.7% | 7%
COc1ccc(NC(=O)Cn2nnc(C(=O)NCc3ccccc3Cl)c2N)cc1Cl | . | . | . | . | 10% | -15%[46.1 µM] | -0.7% | -4%
O=C(COC(=O)c1cc(=O)[nH]c2ccc(Br)cc12)c1ccccc1 | -54%[46.1 µM] | 4% | -1% | 8% | -7% | 0%[46.1 µM] | . | .
Cc1c(Cl)ccc2sc(NC(=O)CN3C(=O)c4ccccc4C3=O)nc12 | -16% | -8% | -3% | 8% | 0% | ? | -0.1% | 10µM*
CCOC(=O)c1cc(C(=O)Nc2ccccc2F)nn1C | ? | -8% | 1% | -15% | 8% | ? | -0.7% | 4%
CC(C(=O)N1CCCc2ccccc21)N1C(=O)c2ccccc2C1=O (stereo unspecified) | 9% | 5% | 11% | -7% | -19% | -4% | -1.1% | -8%
C=CCOC(=O)C1=C(C)NC(C)=C(C(=O)OCC=C)C1c1cn(-c2ccccc2)nc1-c1ccco1 | ? | 11% | -20% | 10% | 6% | -5% | 0.4% | 6%
Cc1csc2nc(O)c(C(=O)NCCCc3ccccc3)c(=O)n12 | ? | . | 4% | -16% | -13% | -14% | . | .
O=[N+]([O-])c1ccc(N2CCN(CCO)CC2)cc1Sc1ccccn1 | 25%[46.1 µM] | 6% | 1% | 22% | -13% | 14% | . | .
Cc1ccc(NC(=O)CSc2n[nH]c(-c3ccco3)n2)cc1 | -8% | 2% | -2% | 2% | 3% | 2% | . | .

Continued:
SMILES | MARV entry inh | NS1 inh | SARS PLpro yeast | RE007 growth inh | StopGo reporter | Lassa entry inh | Cruzain Triton | Cruzain noTriton
COC(=O)c1ccc(OC(=O)c2ccc(OC)cc2)c(OC)c1 | 18% | . | -2% | 5% | 23% | -29% | . | .
Cc1ccc(C)c(N2CCN(C(=O)CN3C(=O)COc4ccc(S(=O)(=O)N5CCCCCC5)cc43)CC2)c1 | -7%[46.1 µM] | . | . | . | ? | -26%[46.1 µM] | -1.3% | -10%
Cc1sc(NC(=O)/C=C/C(=O)O)c(C(N)=O)c1-c1ccc(C(C)(C)C)cc1 | -21% | -47% | 7% | 0% | ? | ? | -8.5% | -2%
CCCOc1ccc(N2C(=O)C3ON(c4ccccc4)C(c4ccc(O)c(OC)c4)C3C2=O)cc1 (stereo unspecified) | ? | -7% | -4% | 4% | -17% | 1% | -5.5% | 24%
COC(=O)c1ccc(C(=O)Nc2nc3cc(N)c(C)cc3s2)cc1 | -11%[46.1 µM] | 6% | -4% | 6% | 5% | 5%[46.1 µM] | . | .
CC1(C)CC(=O)C=C(NNC(=O)c2ccc(N)cc2)C1 | -4% | 17% | 7% | 5% | -13% | 2% | -3.4% | 1%
CCOC(=O)Cc1csc(NC(NC(=O)OCC)(C(=O)OCC)C(F)(F)F)n1 (stereo unspecified) | ? | . | . | 10% | -9% | 6% | . | .
O=C(Cc1ccccc1)Nc1c(Cl)ccc2nsnc12 | ? | 0% | 0% | 16% | -14% | -22%[46.1 µM] | . | .
COc1ccc(CCn2c(C)ccc2C)cc1OC | . | 10% | -13% | . | . | . | 0.2% | ?
O=C(Nc1cc([N+](=O)[O-])ccc1F)c1ccc2ccccc2c1 | ? | -5% | -2% | -5% | 7% | ? | . | .
CC1CCCC(NC(=O)COC(=O)[C@@H](NC(=O)c2ccc(F)cc2)C(C)C)C1C (stereo partly specified) | ? | . | -1% | 1% | -25% | 8% | . | .
Cc1ccnc(NC(=O)CCC(=O)N(CC(=O)NCc2ccc(F)cc2)c2ccc(F)cc2)c1 | -10%[46.1 µM] | -2% | 0% | -22% | -8% | . | . | .
Cc1ccc(N2CC(NC(=O)c3cccc(Cl)c3)CC2=O)cc1C (stereo unspecified) | . | . | . | . | -23% | -20%[46.1 µM] | -3.4% | -15%
Cc1cc(NC(=O)CCC(=O)N(Cc2ccco2)C2(C(=O)NC3CCCC3)CCCCC2)no1 | ? | -7% | 2% | 12% | -9% | ? | . | .
COc1cccc(C2=CC(c3ccccc3F)n3ncc(C(=O)Nc4ccc(F)cc4)c3N2)c1 (stereo unspecified) | . | . | . | . | -30% | ? | -3.3% | -26%
Nc1nn(-c2cccc(F)n2)cc1-c1ccc(Cl)cc1 | ? | 4% | 2% | -6% | -18% | ? | . | .
COc1cc(NC(=O)C2=CC(c3cccs3)=NS(=O)(=O)N2C)cc(OC)c1OC | . | 6% | ? | 12% | ? | . | . | .
O=C(COC(=O)c1cccc(-n2cnnn2)c1)Nc1c(Cl)cccc1C(F)(F)F | -3% | -4% | ? | 2% | -16% | ? | . | .
COc1ccccc1CNC(=O)c1cc2cccc3c2n1CC(C)S3 (stereo unspecified) | . | . | . | . | -5% | -16%[46.1 µM] | 1.8% | 3%
Cc1cc(OCC(=O)OCC(=O)c2c(N)n(C)c(=O)n(C)c2=O)ccc1Cl | 10% | . | 0% | 0% | -20% | 2% | . | .
O=C(NC1(C(F)(F)F)NC(=O)N(CCc2ccccc2)C1=O)c1ccccc1F (stereo unspecified) | -1%[46.1 µM] | . | . | . | -9% | 2%[46.1 µM] | -4.5% | -5%
Cc1noc(C)c1COC(=O)/C=C/c1ccc(Cl)cc1 | -7% | . | -16% | -6% | 19% | -18% | . | .
COc1ccc(CN2CCN(Cc3cccc(F)c3)CC2)cc1OC | -13% | 4% | -3% | -15% | -21% | -20% | . | .
Cc1c(-c2nc(-c3ccccc3)no2)nnn1-c1cccc(C(F)(F)F)c1 | . | . | . | . | 7% | 10%[46.1 µM] | 3.1% | 1%
CC(C)c1ccc(C2/C(=C(/O)c3ccccc3)C(=O)C(=O)N2CCCN2CCOCC2)cc1 (stereo unspecified) | . | ? | 12% | 8% | -12% | . | . | .

Next structures.
SMILES | MARV entry inh | NS1 inh | SARS PLpro yeast | RE007 growth inh | StopGo reporter | Lassa entry inh | Cruzain Triton | Cruzain noTriton
COc1cnc(-c2ccccn2)nc1Oc1ccc(C(C)(C)C)cc1 | . | -1% | -4% | -16% | ? | . | . | .
COc1ccc(CC(=O)Nc2ccc(-c3nnc(-c4ccccc4)o3)cc2)cc1 | ? | ? | 2% | 22% | -11% | -8% | 2.4% | 11%
O=c1c2cnn(-c3ccc(Cl)cc3)c2ncn1Cc1cccc(C(F)(F)F)c1 | 16%[46.1 µM] | . | . | . | -11% | -1%[46.1 µM] | 4.0% | 10%
O=C(CN1CCN(c2ncccn2)CC1)NCCC1=CCCCC1 | 27% | -28% | 4% | 11% | -17% | -3% | 4.7% | -8%
CCOCCCNC(=O)CSCc1nc(-c2ccc(SC)cc2)oc1C | -15% | . | -6% | 12% | 17% | 3% | . | .
O=c1c2ccccc2c(-c2ccc(Br)cc2)nn1Cc1ccccc1 | -6% | -4% | -13% | -3% | -18% | -31% | -3.2% | -5%
COc1cc(Br)cc(/C=N/NC(=O)Cc2ccc(C(F)(F)F)cc2[N+](=O)[O-])c1O | ? | -5% | 25% | 6% | -23% | ? | -0.9% | -11%
Cc1ccc(-c2noc(CSc3nnc(-c4ccncc4)n3-c3ccc(C)cc3)n2)cc1 | ? | -36% | -5% | -1% | ? | -26% | -2.8% | 16%
CNC(=O)CSc1n[nH]c(-c2cc(Cl)ccc2OC)n1 | -4%[46.1 µM] | . | 2% | 16% | 17% | 5% | . | .
COc1ccc(-c2cc(CNC(=O)CCl)on2)cc1 | ? | 9% | 7% | 20% | ? | ? | 2.8% | -2%
CC1CN(C(=O)CN(C)S(=O)(=O)c2ccc3ccccc3c2)CC(C)O1 (stereo unspecified) | . | -4% | 2% | 9% | 11% | . | . | .
